Bioassay records (PubChem)
PrP UTR inh = inhibition of PrP 5' UTR reporter expression. inhibition, % (no concentration beside the values). cell-based PrP 5' UTR mRNA reporter, plate reader. 0.35% of 340,000 active;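 active means every replicate at 50% or more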;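 further: 0 = median of the neutral control wells; tested in H4 reporter cells; numbers are from one replicate; inactives centre near -14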
Autofluor counter = counter-screen for toxin protease inhibitors: compound fluorescence; fluorescence intensity (test concentration not listed); 3.1% of 360,000 active; compound autofluorescence counterscreen, microsphere flow cytometry; active compounds read high; AID 624483;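 active means at least 3 SD above the mean of all compounds, about 16000 in these data; inconclusive means too few beads counted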;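 further: 100 nL of 1 mM stock went into each well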
Sa ugtP lethal = compounds lethal to S. aureus RN4220 ugtP deletion mutant. 0.54% of 330,000 active. OD600 growth, 16 h; some inactives read as strong as hits. growth inhibition, % (no concentration beside the values);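 active means z-score under -3 and OD600 up to 0.15 on both plates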;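 further: plate controls were untreated wells for no effect and antibiotic for full effect; wells of about 80 µL received 100 nL stock; the first replicate is given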
Sa RN4220 lethal = kills Staphylococcus aureus RN4220. S. aureus RN4220 growth, OD600, 16 h. inhibition, % (no concentration beside the values). 0.33% of 330,000 active;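 active means z-score of -3 or lower and OD600 up to 0.18 on both plates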;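 further: plate controls were untreated cells for no effect and reference antibiotic for full effect; stock transfer was 100 nL into about 80 µL; one replicate is shown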
BJeLR lethal = BJeLR cell viability loss | BJeLR (HRASV12) viability, CellTiter-Glo ATP luminescence, 48 h; reference of the scale not given here | inhibition, % (no concentration beside the values) | 0.17% of 300,000 active | AID 1554;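 active means replicate mean above 50%; inconclusive means above 50% but judged a plate artefact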;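 further: 50 nL library stock added to about 25 µL; numbers are from one replicate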
Mtb hypoxia inh = reduces hypoxia-regulated biosensor signal in M. tuberculosis; M. tuberculosis hypoxia-regulated fluorescent reporter, fluorescence; fluorescence inhibition, % (concentration not given with the values); 0.1% of 300,000 active;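 active means 35 to 45% if threefold the growth effect, above 45% if 1.5-fold the growth effect; inactive means the rest, general growth blockers included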;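 further: wells of about 50 µL received 100 nL stock; 0% = vehicle wells and 100% = reference inhibitor wells; whole bacteria with a GFP reporter of the hypoxia response; strong numbers were not always called active; many hits fall short of the cut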
Mtb hypoxia inh growth = recorded beside Mtb hypoxia inh, whose call it bears; growth inhibition, %; measured here: M. tuberculosis growth (absorbance);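 0% = vehicle and 100% = reference antibiotic; read after six days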
Starred values were filed as active, the others as inactive; ? = inconclusive; nt = not tested or not shown; & = joins results of further samples. Compounds were not picked by outcome; overall some 4% were active at least once.

SMILES	PrP UTR inh	Autofluor counter	Sa ugtP lethal	Sa RN4220 lethal	BJeLR lethal	Mtb hypoxia inh	Mtb hypoxia inh growth
O=C(Nc1ccccc1)c1cccc(NC(=O)c2ccco2)c1	-10	nt	4	1.1	-2	5	1
O=C1NCC(COCC2CC=CCC2)O1 (configuration not stated)	-5	?	13	5.6	-4	-3	-6
CC(C)C[C@H](NC(=O)Nc1ccc(Oc2ccccc2)cc1)C(=O)O	-9	7894	6	2.5	-20	-6	-4
On1c(-c2ccccc2Cl)nc2ncccc21	-17	3462	8	3.8	8	6	8
CCCCNC(=O)c1ccc(N2CCC3(CC2)OCCO3)c([N+](=O)[O-])c1	-24	9275	10	5.3	6	12	11
CC1Cc2ccccc2N1C(=O)CCS(=O)(=O)c1cccs1 (configuration not stated)	8	6867	-7	-8.3	2	-11	-2
CC(=NNC(=O)c1ccoc1C)c1ccccc1O	nt	nt	0	3.1	nt	14	3
Fc1cc(F)c2nc(Nc3nc4c(F)cccc4s3)sc2c1	-31	2447	28	44	21	2	-3
COc1cc(NC(=S)Nc2ccc(Br)cc2Cl)c(OC)cc1Cl	2	1889	-15	-3.6	2	-2	2
C=CCOc1cccc(C2C(C(=O)c3ccc(C)o3)=C(O)C(=O)N2CCCn2ccnc2)c1 (configuration not stated)	-9	4336	22	6.6	6	8	4
COC(=O)CCC(=O)OC1(C)C(=O)C=C2C=C(C3CC3)N(CCc3c[nH]c4ccccc34)C=C2C1=O (configuration not stated)	-14	3352	-13	-4.1	-1	-2	-1
COc1ccc(OC)c(C2C(C(=O)Nc3ccccc3OC)=C(C)Nc3nc(CCCO)nn32)c1 (configuration not stated)	2	5705	6	3.2	-6	nt	nt
COc1ccc(OC)c(NC(=O)CSc2nncc3ccccc23)c1	7	5134	-3	-0.9	-2	0	-3
CC(C)Cn1c(SCC(=O)N2CCOCC2)nc2ccccc2c1=O	5	3023	2	3.0	nt	9	-1
CC(C)(C)NC[C@H](O)COc1nsnc1N1CCOCC1	-21&-4&-5	6090&5847&5782	nt	nt	8	nt	nt
CCOc1ccc(NS(=O)(=O)c2ccc(NC(=O)[C@@H]3CCCC[C@@H]3C(=O)O)cc2)cc1	-18	2347	5	0.8	1	4	8
CC(=NN1CCN(Cc2ccccc2)CC1)c1ccco1	nt	nt	-1	6.8	nt	15	4
CS(=O)(=O)N(Cc1ccccc1)c1ccccc1C(=O)Nc1ccccc1C(=O)NCc1ccco1	5	23578*	6	5.3	6	-7	14
C[C@]12CC[C@@H](O)C[C@H]1CC[C@@H]1[C@@H]2CC[C@]2(C)C(=O)CC[C@@H]12	-8	5788	nt	nt	13	nt	nt
Cc1ccc(S(=O)(=O)Nc2ccccc2C(=O)Nc2nc(-c3ccc(F)cc3)cs2)cc1	-24	10562	89*	89*	28	-4	3
O=c1ccc2ccc(Oc3ccc(Cl)cc3[N+](=O)[O-])cc2o1	3	4073	-7	3.6	-6	-7	10
Cc1cc(-c2n[nH]c(=S)n2N=Cc2ccc(Br)s2)n[nH]1	nt	nt	3	13	nt	16	10
COc1cc(NC(=O)Cc2ccccc2)c(C(=O)O)cc1OC	31	4204	-2	6.4	7	7	3
Cc1ccc(C(O)(COC(=O)C(C)C)COC(=O)C(C)C)c(O)c1	-23	5124	6	3.2	10	nt	nt
O=C(CNC(=O)N1CC(=O)Nc2ccccc21)NCc1ccccc1Cl	-12	4933	12	3.1	3	2	-7

Filtered by structure: the compounds so far containing four or more nitrogen atoms (4)
SMILES	PrP UTR inh	Autofluor counter	Sa ugtP lethal	Sa RN4220 lethal	BJeLR lethal	Mtb hypoxia inh	Mtb hypoxia inh growth
COc1ccc(OC)c(C2C(C(=O)Nc3ccccc3OC)=C(C)Nc3nc(CCCO)nn32)c1 (configuration not stated)	2	5705	6	3.2	-6	nt	nt
CC(C)(C)NC[C@H](O)COc1nsnc1N1CCOCC1	-21&-4&-5	6090&5847&5782	nt	nt	8	nt	nt
Cc1cc(-c2n[nH]c(=S)n2N=Cc2ccc(Br)s2)n[nH]1	nt	nt	3	13	nt	16	10
O=C(CNC(=O)N1CC(=O)Nc2ccccc21)NCc1ccccc1Cl	-12	4933	12	3.1	3	2	-7

Returning to the listing, starting two compounds before the break.
SMILES	PrP UTR inh	Autofluor counter	Sa ugtP lethal	Sa RN4220 lethal	BJeLR lethal	Mtb hypoxia inh	Mtb hypoxia inh growth
Cc1ccc(C(O)(COC(=O)C(C)C)COC(=O)C(C)C)c(O)c1	-23	5124	6	3.2	10	nt	nt
O=C(CNC(=O)N1CC(=O)Nc2ccccc21)NCc1ccccc1Cl	-12	4933	12	3.1	3	2	-7
Cc1ccc(NS(=O)(=O)N2CCCCC2)cc1	-23	4065	3	3.4	nt	11	14
CC(C)NC(=O)/C(=C/c1ccco1)c1ccccc1	-12	4222	4	0.4	4	nt	nt
CNC(=O)Nc1cccc2cccnc12	-6	5844	-9	-6.0	7	-1	-6
COc1ccc(CN(C)Cc2nc(Cc3ccccc3Cl)no2)cc1OC	-16	4386	3	7.2	10	-2	4
CCn1c(C)nc2cc(C(=O)NNS(=O)(=O)c3ccc(C)c(C)c3)ccc21	-6	2346	-1	-0.8	-7	6	8
CC(C)C(NC(=O)COc1ccc2ccccc2c1)C(=O)NN=C/C=C/c1ccccc1 (configuration not stated)	nt	nt	-8	-1.3	nt	-4	-6
C1=CC2CCC1ON2c1ccccc1 (configuration not stated)	10	2565	9	-0.3	2	7	1
O=C(CCOc1ccccc1)N1CCN(S(=O)(=O)c2ccccc2F)CC1	-9	nt	12	2.6	nt	6	0
CC1Oc2cc3oc4c(O)c5c(cc4c(=O)c3c(O)c2C1(C)C)C=CC(C)(C)O5 (configuration not stated)	nt	nt	-8	-0.2	5	nt	nt
COC(=O)CSc1nnc(-c2ccccc2OC)n1-c1ccc(C)cc1	-5	3447	6	9.0	7	1	7
CCOC(=O)C(Cc1cc(C(C)=O)ccc1OC(C)C)C(=O)OCC	-3	2369	13	2.7	4	2	1
CCCN1C(=O)COc2ccc(-c3n[nH]c(=O)c4ccccc34)cc21	-8	4739	3	6.9	-5	-11	-6
O=C(COC(=O)C1=COCCO1)Nc1ccc(F)c(F)c1	-16	nt	13	3.8	-4	4	2
Cc1ccc(S(=O)(=O)NCCC(=O)Nc2ccc(C)c(Cl)c2)cc1C	-10	2531	-11	11	-8	3	-4
COc1cc(S(=O)(=O)NCc2ccncc2)c(OC)cc1Br	-14	5664	2	1.9	3	7	11
NC(=S)c1cc2cc(Br)ccc2oc1=O	25	4392	5	8.3	2	9	2
CSc1ccc(Cl)c(C(=O)NCCCn2ccnc2)c1	-12	3918	5	1.6	2	12	16
O=C(C1=C(O)C(=O)N(CCN2CCOCC2)C1c1cccc(Br)c1)c1cccs1 (configuration not stated)	-17	3993	8	2.9	0	-3	8
CCC1(CC)C(=O)N(C)C(=O)NC1=Nc1ccc(OC)cc1	3	2188	-4	-2.2	8	nt	nt
CC(C)OCCCNC(=O)C1CCC(CNS(=O)(=O)c2ccccc2)CC1 (configuration not stated)	-30	11206	11	1.3	17	4	7
Cc1ccc(/C=N/n2cnc3sc(-c4ccccc4)cc3c2=O)o1	-14	2997	nt	nt	-12	nt	nt
CCOc1ccc(OCc2ccc(C(=O)Nc3ccc(Cl)cn3)o2)cc1	-37	10854	0	14	-3	14	3
Cc1ccc(S(=O)(=O)Nc2ccccc2F)cc1C(=O)N1CCN(c2ccccc2O)CC1	-10	8256	2	0.1	nt	3	2
O=C(O)c1cccc(S(=O)(=O)NCc2cccs2)c1	-8	2344	6	6.8	-8	14	6
O=C(c1cn(Cc2ccccc2)c2ccccc12)N1CCCCC1	-28	4356	1	16	3	14	15

The list goes on (6 carried over from the part before).
SMILES	PrP UTR inh	Autofluor counter	Sa ugtP lethal	Sa RN4220 lethal	BJeLR lethal	Mtb hypoxia inh	Mtb hypoxia inh growth
CC(C)OCCCNC(=O)C1CCC(CNS(=O)(=O)c2ccccc2)CC1 (configuration not stated)	-30	11206	11	1.3	17	4	7
Cc1ccc(/C=N/n2cnc3sc(-c4ccccc4)cc3c2=O)o1	-14	2997	nt	nt	-12	nt	nt
CCOc1ccc(OCc2ccc(C(=O)Nc3ccc(Cl)cn3)o2)cc1	-37	10854	0	14	-3	14	3
Cc1ccc(S(=O)(=O)Nc2ccccc2F)cc1C(=O)N1CCN(c2ccccc2O)CC1	-10	8256	2	0.1	nt	3	2
O=C(O)c1cccc(S(=O)(=O)NCc2cccs2)c1	-8	2344	6	6.8	-8	14	6
O=C(c1cn(Cc2ccccc2)c2ccccc12)N1CCCCC1	-28	4356	1	16	3	14	15
Cn1c(CCN2CCCCC2)nc2cc(NC(=O)COc3ccc(Cl)cc3)ccc21	-28	5404	15	0.0	5	18	10
CCC1Oc2ccc(C)cc2N(CC(=O)NCCN2CCOCC2)C1=O (configuration not stated)	-8	6245	7	0.5	-11	3	5
Nn1c(SCC(=O)Nc2cc(S(=O)(=O)N3CCOCC3)ccc2Cl)nnc1-c1cccnc1	-16	4998	1	4.3	2	2	18
CCOC(=O)CCNC(=O)N1CCC(CCOc2ccccc2)(C(=O)OCC)CC1	-26	3503	nt	nt	-6	nt	nt
CC(C)c1csc(CN2CCCC(CNC(=O)c3cccc4ccccc34)C2)n1 (configuration not stated)	-2	5385	1	1.4	5	-6	-5
COc1ccccc1OCc1nnc(SCC(=O)N2CCCC2)o1	-13	3915	9	-3.2	-2	3	7
CC1(C)CC(=O)C(C(c2ccco2)C2C(=O)CC(C)(C)CC2=O)C(=O)C1	3	23157*	-1	3.2	16	-1	2
CN(Cc1ccccc1)C(=O)c1cccc(NC(=O)Cc2ccc(NC(=O)C3CCCN(C(=O)C4CC4)C3)cc2)c1 (configuration not stated)	-12	3283	-5	2.8	nt	1	8
N=c1c2c(ncn1CCN1CCOCC1)Oc1ccc3ccccc3c1C2c1ccccc1 (configuration not stated)	-7	?	-2	17	6	11	14
O=C(NCCCN1CCOCC1)c1ccc2c(=O)n(-c3ccc(F)c(Cl)c3)c(=S)[nH]c2c1	-15	5732	3	0.1	-10	0	1
O=C(CN(c1ccccc1)S(=O)(=O)c1ccccc1)N1CCN(Cc2ccc3c(c2)OCO3)CC1	-9	2521	6	3.7	1	9	11
CC(C)Cc1nnc(N)s1	4	4425	2	1.9	nt	6	0
COC(=O)Nc1nn(-c2ccc(C)cc2)c(=O)c(C#N)c1C	-10	4445	5	7.4	-9	20	8
OCC1(CO)COC(/C=C/c2ccccc2)=N1	-8	3025	8	1.9	-3	11	2
COC(=O)c1ccc(NC(=O)CSc2nnc(CNc3ccc(OC)cc3)n2C)cc1	-31	3317	0	4.9	0	12	3
COCCn1c(Cc2ccccc2)nnc1SCC(=O)N1CCCC1=O	-11	2952	3	2.0	nt	3	-4
O=C(NCC1COc2ccccc2O1)C1CCCN(S(=O)(=O)c2cnc[nH]2)C1 (configuration not stated)	10	5594	5	5.2	5	nt	nt
CCn1c(SCc2cc(=O)[nH]c3ccccc23)nnc1C1CC1	-16	2491	15	7.4	-12	0	3
Cc1cccc(CCN2C(N(C)C)=NCC2Cc2ccccc2)c1 (configuration not stated)	nt	nt	-16	2.4	nt	3	0
CC(=O)Nc1nc2c(s1)C(=O)NCCC2	-5	3322	3	9.1	-5	5	5
CN(C(=O)c1ccc(NC(=O)Cc2cccc(NC(=O)C3CCN(C(=O)c4ccccc4)CC3)c2)cc1)C1CCCC1	-22	4141	1	2.0	nt	14	15
Oc1ccc2nc(Cc3ccccc3)[nH]c2c1	-21	4087	2	-1.5	2	nt	nt
